Screening results from PubChem BioAssay.
GLA inh pH 4.5: blocks human alpha-galactosidase A at pH 4.5; P06280; purified enzyme, 4-MU-alpha-Gal fluorescence, pH 4.5; activity change, negative = inhibition, % at 105 µM; 230,000 tested, under 10 active; AID 1467; inconclusive = small, poorly fitted or top-dose-only inhibition, or a rising curve; inactive = flat fitted curve, though single readings scatter; no compound was filed as active;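 further: 0% = full activity with enzyme and -100% = basal without enzyme; dose as in the result columns while the protocol names 77 µM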
Target sequence (P06280 whole entry, looked up): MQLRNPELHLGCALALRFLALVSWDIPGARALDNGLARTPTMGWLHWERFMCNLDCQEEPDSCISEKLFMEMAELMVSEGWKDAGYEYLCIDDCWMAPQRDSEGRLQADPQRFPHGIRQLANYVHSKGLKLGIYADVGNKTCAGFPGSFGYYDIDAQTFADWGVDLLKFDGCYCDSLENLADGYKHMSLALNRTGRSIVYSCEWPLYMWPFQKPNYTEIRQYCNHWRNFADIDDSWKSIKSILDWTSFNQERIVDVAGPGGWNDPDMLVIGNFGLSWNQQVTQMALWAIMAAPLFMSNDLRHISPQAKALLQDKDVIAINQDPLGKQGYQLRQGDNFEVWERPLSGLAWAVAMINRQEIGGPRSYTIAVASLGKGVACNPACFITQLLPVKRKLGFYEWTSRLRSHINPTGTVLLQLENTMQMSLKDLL
miR-21 reporter: raises the signal of a miR-21 reporter; HeLa miR-21 FLuc reporter, luciferase, 48 h; Potency, µM (top dose mostly 38.3 µM), inactives show top-dose reporter change, positive = more light; 340,000 tested, under 10 active; AID 2288; active = well fitted rising curve with a large enough effect; inconclusive = small, poorly fitted or top-dose-only effect; inactive = no such curve, though single readings can be large or run the other way;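 further: % of control where 0% means no effect; miR-21 action dims this reporter so a rising signal means less miR-21 action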
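Compounds were titrated across several concentrations (up to approximately 40 uM) and incubated 48 hours with HeLa miR-21-FLuc reporter cells (miR-21 target sequence downstream of FLuc, endogenous miR-21). Readout was firefly luciferase luminescence after lytic detection reagent.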
Rango-impB inh: inhibitors of Rango-importin beta complex formation; Q14974; Rango CFP/YFP FRET sensor + importin beta, 45 min; Potency, µM (doses to about 92.2 µM), without a hit: at the highest dose inhibition of complex formation; actives 0.031% (n = 340,000); active = rising FRET ratio curve, often small or poorly fitted; inconclusive = mostly compound fluorescence or quenching in the first reads; inactive = flat curves in all reads;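 further: potency means the concentration at half of the fitted maximal effect; 0% = DMSO wells and 100% = buffer wells lacking importin beta; nearly all actives have a fitted effect of over 15% in size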
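Inhibition scored from the CFP 486 nm/YFP 530 nm FRET ratio 45 min after adding 0.125 microM importin beta to 50 nM Rango biosensor preincubated 5 min with compound (room temperature, PBS with DTT, Tween-20, BSA). No-importin wells as positive control.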
Rango release inh: inhibitors of RanGTP-induced Rango-importin beta complex dissociation | O95149+P62826 | Biochemical FRET Rango-importin beta, RanGTP-induced dissociation | Potency, µM (highest dose often 46.1 µM), for inactives: top-dose activity change, negative = inhibition | actives 0.071% (n = 340,000); active means falling FRET ratio curve, often poorly fitted, with flat reads before Ran was added; inconclusive means other falling curves, or compound fluorescence or quenching; inactive means flat or rising ratio curve;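 further: potency means the concentration at half of the fitted maximal effect; % of control where 0% means no effect; nearly all actives have a fitted effect of over 45% in size; -100% = wells without RanGTP and RCC1; the record marks most hits as doubtful in a second field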
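Rango FRET biosensor (snurportin-1 IBB flanked by N-terminal EYFP and C-terminal CFP10) at 0.1 uM, with 0.25 uM importin beta in PBS, 1mM DTT, 0.02% Tween-20, 0.1% BSA. 0.6 uM Ran, 2mM GTP and 0.2 uM RCC1 were then added for 45 min at room temperature. Inhibition read as loss of FRET rise.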
* = called active by the depositor; ? = inconclusive; . = no result given; & = joins results of further samples; [ ] = another dose, or the depositor's remark. An excerpt; rates above refer to the full screens.

GLA inh pH 4.5,miR-21 reporter,Rango-impB inh,Rango release inh,Compound
.,-53%,-2.7%,-7%,c1ccc(COc2cccc(CN3CCc4ccccc4C3)c2)cc1
.,.,-3.0%,1%,CC(C)=C[C@@H]1C[C@H](C)[C@H]2CC[C@H](C)c3c(O[C@@H]4O[C@@H](C)[C@@H](O)[C@@H](O)[C@@H]4O)c(O)c(C)c1c32
.,.,-1.9%,6%,O=C(COC(=O)Cc1ccc(F)cc1)NC1CCS(=O)(=O)C1 (stereo not drawn)
.,8%,-0.3%,0%,C=C(C)COc1ccc(-c2ncncc2-c2ccccc2OC)c(O)c1
-4,1%,-0.4%,-10%,CCn1c(=O)cc(OCC(=O)Nc2cccc(C)n2)c2ccccc21
-5,-7%,-4.3%,1%,CC(c1ccccc1)N1CCn2c(nc3cc(NC(=O)c4cccs4)ccc32)C1 (stereo not drawn)
-9,-2%,0.0%,-10%,CN1CCN(CC(=O)N(Cc2c(C#N)c3ccccc3n2C)c2ccccc2)CC1
3,1%,-2.8%,?,Cc1ccc(CC2C(=O)N(c3nc(C)cc(C)n3)C(=O)C2C)cc1 (stereo not drawn)
2,-5%,-1.5%,-8%,O=C(O)c1c2c(nc3ccccc13)/C(=C/c1ccc(O)cc1)CCC2
-1,-15%,?,-12%,CCC(=O)N(Cc1ccco1)c1nc(-c2cc(OC)ccc2OC)cs1
-1[21.1 µM],14%,2.6%,17%,CCOC(=O)C1CCCN(S(=O)(=O)c2ccc(S(N)(=O)=O)cc2)C1 (stereo not drawn)
4,-1%,-1.1%,8%,Cc1cc(-c2ccccc2)nc(SCC(=O)N2CCCC2)n1
0,-16%,1.1%,16%,COc1ccc(C(=O)C2CCCN(C(=O)/C=C/c3ccccn3)C2)c(C)c1 (stereo not drawn)
-1,2%,5.9%,30%,CC(NC(=O)COC(=O)c1ccc(Cl)cc1O)c1ccc(F)cc1 (stereo not drawn)
.,.,-2.1%,-2%,CC(=O)Nc1ccc(NC(=O)c2ccc(Cl)c(S(=O)(=O)N3CCc4ccccc43)c2)cc1
.,8%,?,4%,COc1cc(NC(=O)Nc2cc(C)on2)cc(OC)c1OC
-4,-6%,-3.4%,-8%,COc1ccc(/C=C/C(=O)O)cc1COc1ccccc1C
.,7%,-2.8%,8%,Cc1ccc(NC(=O)CSc2sc3c(O)cc(=O)[nH]c3c2C#N)c(F)c1
4,-7%,-1.9%,-14%,O=C(CSc1nccc(=O)[nH]1)N1N=C2/C(=C/c3ccco3)CCCC2C1c1ccco1 (stereo not drawn)
.,0%,-5.6%,3%,COCCNC(=O)CN1C(=O)NC(c2ccccc2)(c2ccccc2)C1=O
.,3%,0.6%,-13%,CC1CN(S(=O)(=O)c2ccc(C(=O)N(CCCN(C)C)c3nc4c(Cl)cccc4s3)cc2)CC(C)O1 (stereo not drawn)
.,6%,1.6%,1%,CC(=O)NC(CC(=O)OCc1ccc([N+](=O)[O-])cc1)c1ccccc1 (stereo not drawn)
-1,-8%,-1.0%,1%,Cc1nc2cc(NC(=O)N3c4ccccc4CC3C)ccc2n1C (stereo not drawn)
1,-74%,1.2%,-2%,CN1CCN(c2ccc(NC(=O)c3sc4ccccc4c3Cl)cc2)CC1
7,0%,-3.0%,15%,C/C(=N\NC(=O)c1cccnc1)c1cc2ccccc2o1
.,-6%,1.1%,-4%,COc1ccc(C2=NN(CCC(=O)NC3CCC(C)CC3)C(=O)CC2)cc1 (stereo not drawn)
2[21.1 µM],0%,0.1%,7%,COc1ccc(-n2c(=O)c3ccccc3n(CC(=O)OCc3ccccc3)c2=O)cc1OC
.,.,3.6%,5%,CN(CC(=O)Nc1cccc(S(=O)(=O)N2CCOCC2)c1)CC(=O)Nc1ccc(Cl)c(C(F)(F)F)c1
.,13%,-0.1%,1%,COc1cccc(CNC(=O)C(C)n2ccc3cc(S(=O)(=O)N4CCCC4)ccc32)c1 (stereo not drawn)
-5,7%,-3.9%,-12%,COc1ccc(-c2cc(C(=O)N/N=C/c3ccc4c(c3)OCO4)c3ccccc3n2)c(OC)c1
3,0%,-3.3%,-11%,Cc1cc(NC(=O)Cn2cnc3sc(C)c(-c4ccccc4)c3c2=O)no1
.,.,0.7%,-5%,CN(C)C(=O)CCc1ccc2c3c([nH]c2c1)[C@]1(C)[C@@H](C(=O)N2CCCCC2)C[C@H](CC(=O)NCCN2CCOCC2)C(=O)N1CC3
.,-1%,-0.6%,1%,N#Cc1c(NC(=O)C(=O)NCCCN2CCOCC2)sc2c1CCC2
-6,-1%,-3.6%,-14%,Cc1cc(NC(=O)CSc2nnc(C)n2-c2ccccc2)no1
7,-1%,-0.7%,-6%,CC1CN(c2cc(=O)n(-c3cccc(Br)c3)c(=O)[nH]2)CC(C)O1 (stereo not drawn)
-5,-3%,-0.2%,1%,COc1ccc(Cl)cc1NC(=O)C(C)N(C)Cc1ccc(C(F)(F)F)cc1 (stereo not drawn)
.,0%,-1.9%,-19%,COc1ccccc1NC(=O)c1ccc2c(c1)C(=O)N(Cc1ccco1)C2=O
.,-15%,0.1%,9%,Cc1nn(CC(=O)NCCc2cccs2)c(=O)c2nn(-c3ccccc3)c(C)c12
-11,-1%,-0.5%,4%,CCCCSc1nc(O)cc(=O)n1CC
4,-4%,5.9%,13%,N#Cc1nc(-c2ccc(OCc3ccc(Cl)cc3)cc2)oc1N1CCOCC1
4,3%,-0.9%,1%,O=c1cc(-c2ccccc2Cl)oc2c(NS(=O)(=O)c3ccccc3C(F)(F)F)ccc(O)c12
-4,1%,0.1%,4%,COc1ccc(-c2nc[nH]c2[N+](=O)[O-])cc1
3,-13%,1.1%,-10%,CCOC(=O)C1=C(C)N(CCCC(=O)NCc2ccc3c(c2)OCO3)C(=O)NC1c1ccc(Br)cc1 (stereo not drawn)
.,-12%,-0.4%,6%,O=C(CNC(=O)C1CCCCC1)NC1CCCCC1
.,.,-3.8%,-14%,COc1cccc(NC(=O)CN(C)C(=O)Cc2c(C)nc3ccccc3c2C)c1

2 of these compounds, set out differently.
O=c1cc(-c2ccccc2Cl)oc2c(NS(=O)(=O)c3ccccc3C(F)(F)F)ccc(O)c12
  GLA inh pH 4.5: 4 | miR-21 reporter: 3% | Rango-impB inh: -0.9% | Rango release inh: 1%
COc1ccc(-c2nc[nH]c2[N+](=O)[O-])cc1
  GLA inh pH 4.5: -4 | miR-21 reporter: 1% | Rango-impB inh: 0.1% | Rango release inh: 4%

Next section:
GLA inh pH 4.5,miR-21 reporter,Rango-impB inh,Rango release inh,Compound
-17,17%,-2.5%,-10%,CCCNC(=O)c1ccc2nc(-c3ccccc3)c(-c3ccccc3)nc2c1
2,17%,-6.2%,-14%,CSc1cccc(NC(=O)C2CCCN2S(=O)(=O)c2ccc(Br)s2)c1 (stereo not drawn)
-3,0%,-0.2%,9%,NC(=O)COC(=O)CN1C(=O)C2CCCCC2C1=O (stereo not drawn)
-5,-62%,-0.7%,16%,COc1ccc(/C(N)=N/OC(=O)CSc2ccccc2)cc1OC
.,-3%,-1.2%,-9%,O=C(c1cc(-c2ccc(Cl)cc2)n[nH]1)N1CCc2ccccc2C1
5,2%,-0.9%,39%,CC1CCc2nc3ccccc3c(C(=O)OCC(=O)N(C)C3CCS(=O)(=O)C3)c2C1 (stereo not drawn)
2,-34%,-2.6%,-4%,Cc1ccc(C(=O)CSc2nc3ccccc3o2)cc1
2,-5%,-5.3%,5%,O=C(Cc1ccccc1)NCC(=O)OCC(=O)c1cccc([N+](=O)[O-])c1
.,16%&12%,-0.7%,-9%,CCN(Cc1ccccc1)C(=O)C1CCN(c2ncnc3c2nc2n3CCCCC2)CC1
.,.,0.0%,13%,CCCN(C(=O)c1ccc(-n2cncn2)c([N+](=O)[O-])c1)C1CCS(=O)(=O)C1 (stereo not drawn)
.,5%,0.0%,2%,CCCN1CCC(NCC(C)c2ccccc2)CC1 (stereo not drawn)
.,-1%,-1.2%,18%,O=C(COc1ccccc1)Nc1c2c(nn1-c1ccccc1)CS(=O)(=O)C2
-1,22%,-1.6%,12%,CCOCCCNC(=O)/C(C#N)=C/c1cc(OC)c(O)c([N+](=O)[O-])c1
.,1%,0.1%,-2%,Cc1ccc(CNC(=O)c2c(-c3ccccc3Cl)noc2C)cc1
5,-57%,-0.6%,-4%,Cc1nc(NC(=O)c2ccc3c(c2)OCO3)ccc1Br

A draw from above in order of length of the SMILES, rising.
GLA inh pH 4.5,miR-21 reporter,Rango-impB inh,Rango release inh,Compound
-5,-62%,-0.7%,16%,COc1ccc(/C(N)=N/OC(=O)CSc2ccccc2)cc1OC
.,-3%,-1.2%,-9%,O=C(c1cc(-c2ccc(Cl)cc2)n[nH]1)N1CCc2ccccc2C1
-17,17%,-2.5%,-10%,CCCNC(=O)c1ccc2nc(-c3ccccc3)c(-c3ccccc3)nc2c1
.,16%&12%,-0.7%,-9%,CCN(Cc1ccccc1)C(=O)C1CCN(c2ncnc3c2nc2n3CCCCC2)CC1

Other compounds
GLA inh pH 4.5,miR-21 reporter,Rango-impB inh,Rango release inh,Compound
0,-3%,1.2%,-1%,CCOc1ccccc1C1NC(=O)NC(C)=C1C(=O)OC1CCCCC1 (stereo not drawn)
.,.,0.9%,-3%,COc1ccc(C)cc1S(=O)(=O)N(C)CC(=O)N1CCCCC1
-5,2%,-2.0%,7%,Cc1nc2c(C#N)c(C)[nH]n2c(=O)c1Cc1ccccc1
.,1%,2.1%,-17%,COc1cc(/C=C/C(=O)OCC(=O)NCCc2ccccc2)ccc1OC(F)F
8,7%,2.6%,2%,CC(=O)OC(C)CS(=O)(=O)c1ccccc1 (stereo not drawn)
3,-5%,-0.3%,-10%,CCOc1ccc2cc(C#N)c(SCC(=O)N3CCC(C)CC3)nc2c1
1,1%,-1.2%,?,O=c1c(Cc2ccccc2O)c(O)nc2n1CCCS2
2,-8%,0.4%,-4%,Cc1nc(SCC(=O)N2CC(=O)Nc3ccccc32)nc(C)c1C
.,0%,-1.8%,8%,CCn1cc(/C=C(\NC(=O)c2cc(OC)c(OC)c(OC)c2)C(=O)N2CCN(C)CC2)c2ccccc21
13,-6%,3.9%,3%,O=C(COc1ccc(S(=O)(=O)NCc2ccccc2)cc1Cl)N1CCOCC1
-3,-5%,-3.0%,3%,CCC(=O)N1CCc2cc(Br)cc(S(=O)(=O)NCCN3CCCCC3C)c21 (stereo not drawn)
.,.,0.1%,-4%,COc1cccc(COC(=O)c2ccc3c(=O)n4c(nc3c2)CCC4)c1OC
-5,-1%,-2.8%,-11%,CCN(CC)S(=O)(=O)c1ccc(NN=C2CCN(C(C)C)CC2)c([N+](=O)[O-])c1
-7,0%,-0.6%,-17%,N#Cc1cc(O)c(-n2nnc3ccccc32)cc1C#N
.,.,-0.6%,11%,C/C(=N\OCC(=O)OC(C)C(=O)Nc1ccc(C)c(S(=O)(=O)N2CCOCC2)c1)c1ccc2c(c1)OCO2 (stereo not drawn)
0,-2%,3.3%,1%,CCOC(=O)N1CCN(C(=O)c2ccc3c(=O)n(CCc4ccccc4)c(=S)[nH]c3c2)CC1
14,8%,15%,-5%,CCN1C(=O)c2cccc3c(NC(=O)c4cccc(N5C(=O)CCC5=O)c4)ccc1c23
-6,-3%,-7.7%,9%,CCc1ccccc1NC(=O)c1nnn(CC(=O)Nc2cccc(C)c2)c1N
.,0%,2.8%,10%,CCOC(=O)C1CCN(S(=O)(=O)c2ccc3oc(=O)ccc3c2)CC1
-4[21.1 µM],-28%,-0.2%,6%,O=C1NC(=S)N/C1=C/c1cc([N+](=O)[O-])ccc1N1CCOCC1
10,-49%,-4.0%,1%,Brc1ccc2nc(N3CCN(c4ccccc4)CC3)sc2c1
-10,-1%,0.4%,3%,COc1ccccc1C(=O)N/C(=C\c1ccc(Br)cc1)C(=O)NCCCO
.,-46%,0.2%,-10%,Cc1oc2ccc(O)cc2c1C(=O)c1ccccc1
-6,-6%,0.3%,-14%,CCC1(C)Cc2ccccc2-c2nc3n(c(=O)c21)CC(C(=O)O)S3 (stereo not drawn)
.,.,3.4%,18%,NC(=O)NC(Cc1ccccc1)C(=O)N1CCN(S(=O)(=O)c2ccc(Cl)cc2)CC1 (stereo not drawn)
-10,2%,1.5%,10%,C=CCOC(=O)C1=C(C)N=C2SCCC(=O)N2C1c1ccc(OC(=O)c2ccco2)cc1 (stereo not drawn)
